Mtb H37Rv: M. tuberculosis H37Rv growth inhibitors, H37Rv strain (AID 1626). M. tuberculosis H37Rv growth inhibition; higher % means a stronger effect. one-dose inhibition, % at 10 µM; IC50 in µM for titrated hits. 220,000 compounds, 0.95% hits;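 active means confirmed in a dose series; inconclusive means inhibition above 80% but not taken into the dose series; inactive means below 80% or under 30% at every dose of the series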;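 further: bacteria incubated seven days before Alamar blue readout; 0% = bacteria only wells and 100% = bacteria with antibiotic wells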
YopH inh: blocks Yersinia enterocolitica YopH tyrosine phosphatase; fluorescence Ex485/Em525; inhibition, %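 (about 10 µM by stock and volumes)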; 140,000 compounds, 0.16% hits; AID 898;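 active means inhibition of 50% or more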;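 further: controls were vehicle for no effect and minimum signal wells for full effect; inactives centre near -20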
Arbovirus inh: arbovirus infection inhibition; arbovirus infection cell-based antiviral screen; inhibition, % at 10 µM; 200,000 compounds, 0.37% hits; AID 1251;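 active means inhibition from about 30%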;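 further: bluetongue infection of BSR cells; cell survival read as ATP light after 72 h; 0% = infected wells without compound and 100% = uninfected wells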
RecA intein inh: blocks M. tuberculosis RecA intein splicing. P9WHJ3. cell-free RecA intein splicing, fluorescence. inhibition, %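 (about 9 µM by stock and volumes)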. 290,000 compounds, 0.75% hits; in the data active means inhibition above about 30%; inconclusive means no clear call, values can overlap the other calls;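 further: 0% = vehicle wells and 100% = reference inhibitor control wells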
Target sequence (P9WHJ3 whole entry, looked up): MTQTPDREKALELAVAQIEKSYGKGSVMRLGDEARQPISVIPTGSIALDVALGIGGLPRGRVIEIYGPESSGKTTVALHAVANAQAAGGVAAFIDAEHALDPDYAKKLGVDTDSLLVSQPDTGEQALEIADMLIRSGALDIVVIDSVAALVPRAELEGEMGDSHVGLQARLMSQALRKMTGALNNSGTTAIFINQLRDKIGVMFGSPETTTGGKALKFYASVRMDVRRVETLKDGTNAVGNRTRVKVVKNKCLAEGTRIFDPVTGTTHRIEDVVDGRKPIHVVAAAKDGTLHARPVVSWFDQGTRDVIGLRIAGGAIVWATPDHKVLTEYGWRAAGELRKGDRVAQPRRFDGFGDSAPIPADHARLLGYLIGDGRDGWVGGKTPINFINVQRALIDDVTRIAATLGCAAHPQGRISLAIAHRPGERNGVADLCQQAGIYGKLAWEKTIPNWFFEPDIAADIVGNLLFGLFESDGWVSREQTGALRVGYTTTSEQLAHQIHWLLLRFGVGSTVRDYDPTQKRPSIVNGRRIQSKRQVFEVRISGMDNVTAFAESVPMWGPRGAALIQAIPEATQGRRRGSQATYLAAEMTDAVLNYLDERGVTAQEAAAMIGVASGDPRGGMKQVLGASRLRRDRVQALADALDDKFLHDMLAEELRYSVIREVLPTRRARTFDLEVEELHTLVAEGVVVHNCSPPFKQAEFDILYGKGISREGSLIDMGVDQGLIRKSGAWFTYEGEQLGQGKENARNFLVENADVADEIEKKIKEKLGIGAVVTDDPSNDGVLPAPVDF
Mtb bLac sens: beta-lactam sensitization of Mtb H37Rv. 330,000 compounds, 0.27% hits. M. tuberculosis H37Rv growth with meropenem, percent inhibition; hits of this screen are not shown here. inhibition, % at 25 µM;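 active means about 74% or more and at least 40 points above the plate without the antibiotic, then above 30% in a dose series; inconclusive means first-round hits that could not be retested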;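 further: growth measured after seven days incubation then overnight dye step; 0% = bacteria only wells and 100% = bacteria with antibiotic; twin plates without the antibiotic show which effects depend on it; some results filed as inactive read as strong as hits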
Arbovirus inh repeat: also measured in Arbovirus inh; calls as there; inhibition, %; measured here: 10K subset replicate screen; many hits read low in the repeat;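 first of two repeat runs on a subset; 0% = infected and 100% = uninfected wells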
Starred values were filed as active, the others as inactive; ? = inconclusive; nt = not tested or not shown. This is a subset (hit frequency here may not be typical).

SMILES	Mtb H37Rv	YopH inh	Arbovirus inh	RecA intein inh	Mtb bLac sens	others
COCCn1c(C)cc(C2=NNC(=Nc3ccc(OC)cc3)SC2)c1C	-6.0%	-9.6	0.4	1.3	1.1
Cn1cc(Cl)c(C(=O)N/N=C/c2ccc3c4c(cccc24)CC3)n1	nt	nt	nt	-2.6	-7.4
COc1ccc(CCNC(=O)CS(=O)(=O)c2cn(CC(=O)N(C(C)C)C(C)C)c3ccccc23)cc1OC	nt	nt	nt	-3.7	-5.5
CCOC(=O)Oc1ccc2c(=O)c(Oc3cccc(C)c3)coc2c1	-0.4%	-24.3	-0.2	-0.2	0.7
Cc1ccc(C)c(Cn2ncc3ccccc32)c1	nt	nt	nt	4.4	5.0
Cc1ccc2[nH]c(C)c(CCNC(=O)C3CCCCC3C(=O)OCC(F)(F)F)c2c1 (stereo not given)	-4.6%	-24.9	0.2	-3.0	1.8
CNCC1(c2ccccc2)CCCC1	-5.5%	-3.1	9.2	1.4	7.2
O=C(NC(=S)Nc1ccccc1N1CCOCC1)c1ccc(-c2cc(Cl)ccc2Cl)o1	-14.2%	-6.0	-7.0	-1.4	3.0
NC12NC(=O)C3(O)C4C5CC(C6C5C3C61)C42 (stereo not given)	-0.8%	nt	-3.0	-1.8	0.2
COc1ccc(C(=O)CC(=O)C(=O)Nc2ccccc2)cc1	nt	nt	nt	1.1	6.5
COc1cc(/C=N/N(C)S(=O)(=O)c2ccc(C)cc2)cc([N+](=O)[O-])c1O	-1.5%	nt	nt	-2.0	7.2
Cc1nnc(SCC(=O)Nc2ccc(-c3nc4ccccc4s3)cc2)s1	3.1%	-15.9	-6.2	-0.7	3.6
CSc1c(C#N)c(N)c(C#N)c2c1COC(C)(C)C2	-10.1%	-7.3	7.1	-0.3	?
CCCN1C2CCCC1CC(NC(=O)c1cc(OC)c(OC)c(OC)c1)C2 (stereo not given)	-1.2%	-49.4	-2.5	-0.9	8.7
Cc1ccc(N(C(=O)Cn2nnc3ccccc32)C(C(=O)NC2CCCCC2)c2cn(C)nc2C)cc1 (stereo not given)	-4.5%	-40.4	3.6	nt	1.9
Cc1ccc(C(C)C)c(OCC(=O)NN2C(=O)c3ccccc3C2=O)c1	nt	nt	nt	-2.9	2.3
COC(=O)CCN(C(=O)c1ccc(Cl)c([N+](=O)[O-])c1)c1ccccn1	-7.0%	nt	nt	-1.4	13.0
CCOc1ccccc1CNC(=O)c1ccccc1NC(=O)C1=CSCCO1	nt	nt	nt	0.7	-3.3
CCOC(=O)CSc1nc(C)cc(C)c1C(N)=O	-4.3%	nt	1.4	1.4	-4.0
O=C(O)C12C[C@H]3C[C@@H](C1)CC(n1ncc(N4CCN(c5ccccc5)CC4)c(Cl)c1=O)(C3)C2	-7.4%	-22.3	3.8	0.6	-3.6
CC1Cc2ccccc2N1Cc1cc(=O)c(OCC(=O)Nc2ccccc2)co1 (stereo not given)	nt	nt	nt	2.4	-1.6
CC(Sc1nnnn1-c1ccc(O)cc1)C(=O)NC1CCCCC1C (stereo not given)	nt	nt	nt	1.6	-8.9
Cc1nc(SCC(=O)Nc2cc(C)on2)c2c(=O)n(C)c(=O)n(C)c2n1	2.8%	-36.2	-1.7	0.7	-7.8
Brc1ccc(-c2csc(N/N=C/c3cccnc3)n2)cc1	4.6%	nt	21.1	-1.9	7.0
Cc1cc(C)c(NC(=O)Cn2cnc3c(oc4ccccc43)c2=O)c(C)c1	-3.7%	nt	-2.9	-0.1	-10.8
CN(C(=O)COC(=O)c1ccc2c(c1)OCCO2)c1ccccc1	-3.3%	nt	1.5	6.9	-7.8
CCC(Sc1nc2cc3c(cc2c(=O)n1Cc1ccco1)OCO3)C(=O)Nc1ccccc1OC (stereo not given)	-11.0%	-37.9	-16.1	-1.0	3.1
CC(=O)c1c(NCc2ccccc2)nc(=O)n(-c2ccccc2)c1C	-11.0%	-18.0	10.4	0.1	?	Arbovirus inh repeat=-0.8
COc1cccc(NC(=O)COC(=O)Cc2ccc(Cl)cc2)c1	2.0%	nt	1.2	0.6	16.6
CCCc1c(O)nc(SCCN(CCC)CCC)[nH]c1=O	-0.5%	-22.0	16.0	-1.9	3.8
C#CCOCCOCCOCCNc1nc(N2CCN(C(=O)[C@H](Cc3cc4ccccc4[nH]3)n3cc([C@@H](N)C(C)CC)nn3)CC2)nc(N2CCN(C(=O)[C@H](Cc3cc4ccccc4[nH]3)n3cc([C@@H](N)CC(C)C)nn3)CC2)n1 (stereo not given in full)	nt	nt	-12.4	10.2	98.9
CSc1ncc(Cl)c(C(=O)Nc2cc(C)ccc2C)n1	nt	nt	nt	-0.9	-2.6
Cc1cc(NC(=O)c2ccccc2F)on1	-1.4%	-37.6	-0.9	-1.6	1.6
CCCCC(=O)Nc1ccc(NC(=O)c2ccco2)cn1	nt	nt	nt	8.5	0.5
CCOC(=O)c1cnn(-c2cccc(Cl)c2)c1N	4.6%	-37.8	0.7	nt	-18.2
Clc1cccc(OCc2nnc(-c3ccccc3Br)o2)c1	nt	nt	nt	15.6	12.1
CCCCOCCCNC(=O)c1ccc2c(c1)OCO2	-0.6%	-39.4	-1.1	-1.6	3.3
CCN(CC)C(=O)c1ccc(NC(=O)CN2CCc3cc(OC)c(OC)cc3C2)cc1	nt	nt	nt	-6.9	-4.2
COc1cccc(CN2CCNC(=O)C2CC(=O)N(C)C2CCCCC2)c1OC (stereo not given)	nt	nt	nt	-0.4	0.9
Cc1ccc(Cn2c(SCC(=O)N/N=C/c3ccccc3OCC(=O)O)nc3ccccc32)cc1	6.0%	nt	nt	6.7	-3.4
Cc1nc2ccccn2c1C(=O)N/N=C/c1ccc2c(c1)OCO2	1.6%	-22.8	-0.9	-3.1	-2.6
O=C(N/N=C/c1c[nH]c2ccccc12)C1COc2ccccc2O1 (stereo not given)	-1.0%	-15.4	1.8	-0.6	0.2
O=C(O)c1cccc2c1C(=O)c1cccc3snc-2c13	-6.0%	nt	nt	-4.2	1.2
COc1ccc(N(CC(=O)NCC2CCCO2)C(=O)CCC(=O)Nc2nccs2)c(OC)c1 (stereo not given)	nt	nt	nt	1.3	5.3
CCn1c(-c2ccco2)nc2ccccc21	49.6%	-23.4	2.1	-3.2	2.7
Cc1cccc(N2CCN(C(=O)CSc3ccsc3[N+](=O)[O-])CC2C)c1 (stereo not given)	11.5%	-13.4	0.1	-0.8	71.2
CN1C(=O)C(C)(C)c2cc(S(=O)(=O)N3CCC(C(=O)NCc4ccccc4Cl)CC3)ccc21	nt	nt	nt	-2.1	8.5
COc1cccc(-c2cc(C(=O)NC3CCCC3)c3ccccc3n2)c1	nt	nt	nt	4.1	10.8
COc1cccc(C(=O)Cn2c(N3CCOCC3)nc3c2c(=O)n(C)c(=O)n3C)c1	13.7%	-17.6	6.7	-0.7	-8.1
CCOCCc1nnc(NC(=O)C2CCN(C(=O)c3ccco3)CC2)s1	nt	nt	nt	3.2	-2.1
Further entries:
SMILES	Mtb H37Rv	YopH inh	Arbovirus inh	RecA intein inh	Mtb bLac sens	others
CCC(C)(C)NC(=O)C(c1ccc(OC)cc1)N(C(=O)CCC(=O)Nc1cc(C)on1)c1cccc(F)c1 (stereo not given)	nt	nt	nt	-1.1	9.1
COC(=O)CCC(=O)N1CCOCCOCCN(C(=O)CCC(=O)OC)CCOCCOCC1	-21.6%	-4.1	2.7	-1.6	-4.8
COc1ccc(S(=O)(=O)N2CCC3(CC2)CC(=O)c2ccccc2O3)cc1C	nt	nt	nt	-1.7	1.6
COC(=O)Cn1nc(-c2ccc(C)c(S(=O)(=O)N(C)C)c2)c2ccccc2c1=O	4.5%	-27.6	3.0	-0.7	-6.5
CCNC(=O)N(C(=O)NCC)n1c(C)nnc1C	-0.7%	-43.4	-1.2	-4.0	-14.5
CCNC(=O)C1Cc2ccccc2CN1S(=O)(=O)c1ccc(F)cc1 (stereo not given)	-2.8%	nt	nt	-2.9	-8.5
CC(C)C(NC(=O)COc1ccccc1)C(=O)O (stereo not given)	-0.2%	-11.9	0.0	-0.6	nt
c1ccc(N2CCN(c3ccccc3)C2c2cccnc2)cc1	10.2%	-29.9	-6.6	4.1	-9.5
Cc1cccc(OCC(=O)N2CCN(Cc3ccncc3)CC2)c1	-1.3%	-4.1	7.5	-2.4	1.6
COc1ccc2c(c1)OC/C(=C/c1cccs1)C2=O	-12.6%	-20.3	-1.0	10.5	13.5

Brought forward from above: two entries, followed by the next part.
SMILES	Mtb H37Rv	YopH inh	Arbovirus inh	RecA intein inh	Mtb bLac sens	others
Cc1cccc(OCC(=O)N2CCN(Cc3ccncc3)CC2)c1	-1.3%	-4.1	7.5	-2.4	1.6
COc1ccc2c(c1)OC/C(=C/c1cccs1)C2=O	-12.6%	-20.3	-1.0	10.5	13.5
COC(=O)c1ccccc1Oc1ccc(NC(=O)C(C)(C)CCl)cc1	9.3%	nt	-4.1	2.4	-6.9
NNC(=O)CN1C(c2ccccc2Br)=Nc2ccc(Br)cc2C1c1ccccc1 (stereo not given)	12.1%	-23.6	-8.7	8.4	-5.7
COc1cccc(CNC(=O)CCCn2ncn3c(cc4occc43)c2=O)c1	nt	nt	nt	-1.7	-1.9
O=C(CSc1ccc2c(c1)OCCO2)Nc1ncc(Cl)cc1Cl	6.0%	-9.1	12.6	3.9	-2.9
Cc1ccc(C(=O)Nc2ccc3c(c2)nc2n3CCSC2)cc1	-4.0%	-25.3	-16.1	2.9	-3.8
CC(=O)N1CCC(N2CCCC(C(=O)c3cccc(Cl)c3)C2)CC1 (stereo not given)	2.9%	nt	-5.6	-14.9	-6.3
CSc1nc(-c2ccc(Cl)cc2)nn1C(=O)c1ccco1	4.8%	-37.1	-1.5	37.6*	60.5
Cc1cc(C)n(-c2ccc(C)c(Cl)c2)n1	-1.0%	-30.8	-1.2	0.1	-6.5
COc1ccc(-c2oc3ccc(-c4ccc(OC)nc4)cc3c2-c2ccc(OC)cc2)cc1	5.4%	nt	nt	0.3	2.8
c1ccc(-c2nc(NCc3cccnc3)c3oc4ccccc4c3n2)cc1	-2.1%	-37.1	-22.4	2.3	99.7
Clc1ccc2c(NCc3ccccn3)ncnc2c1	-7.4%	-2.4	8.5	2.2	-8.7
CC(C)C(NC(=O)OCc1ccccc1)C(=O)OCC(=O)NCc1ccco1 (stereo not given)	-2.8%	-7.1	4.9	-1.0	9.8
O=C(COC(=O)Cc1n[nH]c(=O)c2ccccc12)Nc1cccc(C(F)(F)F)c1	2.1%	nt	7.9	0.1	0.2

18 consecutive entries out of the list so far:
SMILES	Mtb H37Rv	YopH inh	Arbovirus inh	RecA intein inh	Mtb bLac sens	others
COCCn1c(C)cc(C2=NNC(=Nc3ccc(OC)cc3)SC2)c1C	-6.0%	-9.6	0.4	1.3	1.1
Cn1cc(Cl)c(C(=O)N/N=C/c2ccc3c4c(cccc24)CC3)n1	nt	nt	nt	-2.6	-7.4
COc1ccc(CCNC(=O)CS(=O)(=O)c2cn(CC(=O)N(C(C)C)C(C)C)c3ccccc23)cc1OC	nt	nt	nt	-3.7	-5.5
CCOC(=O)Oc1ccc2c(=O)c(Oc3cccc(C)c3)coc2c1	-0.4%	-24.3	-0.2	-0.2	0.7
Cc1ccc(C)c(Cn2ncc3ccccc32)c1	nt	nt	nt	4.4	5.0
Cc1ccc2[nH]c(C)c(CCNC(=O)C3CCCCC3C(=O)OCC(F)(F)F)c2c1 (stereo not given)	-4.6%	-24.9	0.2	-3.0	1.8
CNCC1(c2ccccc2)CCCC1	-5.5%	-3.1	9.2	1.4	7.2
O=C(NC(=S)Nc1ccccc1N1CCOCC1)c1ccc(-c2cc(Cl)ccc2Cl)o1	-14.2%	-6.0	-7.0	-1.4	3.0
NC12NC(=O)C3(O)C4C5CC(C6C5C3C61)C42 (stereo not given)	-0.8%	nt	-3.0	-1.8	0.2
COc1ccc(C(=O)CC(=O)C(=O)Nc2ccccc2)cc1	nt	nt	nt	1.1	6.5
COc1cc(/C=N/N(C)S(=O)(=O)c2ccc(C)cc2)cc([N+](=O)[O-])c1O	-1.5%	nt	nt	-2.0	7.2
Cc1nnc(SCC(=O)Nc2ccc(-c3nc4ccccc4s3)cc2)s1	3.1%	-15.9	-6.2	-0.7	3.6
CSc1c(C#N)c(N)c(C#N)c2c1COC(C)(C)C2	-10.1%	-7.3	7.1	-0.3	?
CCCN1C2CCCC1CC(NC(=O)c1cc(OC)c(OC)c(OC)c1)C2 (stereo not given)	-1.2%	-49.4	-2.5	-0.9	8.7
Cc1ccc(N(C(=O)Cn2nnc3ccccc32)C(C(=O)NC2CCCCC2)c2cn(C)nc2C)cc1 (stereo not given)	-4.5%	-40.4	3.6	nt	1.9
Cc1ccc(C(C)C)c(OCC(=O)NN2C(=O)c3ccccc3C2=O)c1	nt	nt	nt	-2.9	2.3
COC(=O)CCN(C(=O)c1ccc(Cl)c([N+](=O)[O-])c1)c1ccccn1	-7.0%	nt	nt	-1.4	13.0
CCOc1ccccc1CNC(=O)c1ccccc1NC(=O)C1=CSCCO1	nt	nt	nt	0.7	-3.3
